Bioassay records from PubChem BioAssay.
Six1-Eya2 inh: Six1/Eya2 interaction inhibition. activity change, % (test concentration not listed). 360,000 compounds, 0.56% hits. Q15475+O00167. AlphaScreen GST-Six1/His-Eya2 binding, biochemical; hits give low values; control for the full effect not named in the record. AID 651725; in the data active = activity change below about -65%; inconclusive = about -30% to -65%; inactive = above about -30%; further: on the % scale 0 is the no-effect control and ±100 the full control effect
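AlphaScreen with GST-Six1 and His-Eya2 (5X mix: 250 nM and 500 nM), glutathione donor and nickel acceptor beads; buffer 50 mM Tris pH 8.0, 300 mM NaCl, 1 mM TCEP; 1 h at 37 C in the dark.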
CtBP-E1A inh: inhibitors of CtBP/E1A interaction; AlphaScreen GST-E1A/His-CtBP binding, 1536-well; hits give low values; control for the full effect not named in the record; activity change, % (test concentration not listed); 340,000 compounds, 0.49% hits; AID 651724; in the data active means activity change below about -65%; inconclusive means about -30% to -65%; inactive means above about -30%; further: on the % scale 0 is the no-effect control and ±100 the full control effect
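In 5 uL wells, 23 nL compound meets equimolar GST-E1A and His-CtBP (5X stock 125 nM each) for 2 h, 37 °C. Beads (5X, 50 ug/mL) then 1 h, 37 °C, dark.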
D2 PAM: positive allosteric modulators of human D2 dopamine receptor | 360,000 compounds, 0.23% hits | potentiation, % (no concentration beside the values) | AID 624464 | DiscoveRx D2 beta-arrestin cells, luminescence, 90 min; 100% = 57 uM dopamine signal; active = potentiation of 50% or more; inconclusive = 30% to 50%; inactive = 30% or less;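 further: compound concentration not given in the record; tested on top of an EC20 dose of dopamine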
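D2 cells co-treated with compound plus 50 nM dopamine (EC20) for 90 min at 37 deg C to detect potentiation. Beta-arrestin recruitment was read as enzyme-fragment luminescence after 1 h at ambient temperature. Full response was set by 57 uM dopamine.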
PINK1 modulator: PINK1 expression modulation | PINK1 immunofluorescence, high-content cytometry, 24 h | Potency, µM (doses to about 76.6 µM), for inactives: top-dose activation (PINK1 increase), most hits filed as activators | 410,000 compounds, 0.2% hits | AID 624263; active = well fitted activation curve with a large enough effect; inconclusive = small, poorly fitted or top-dose-only effect; inactive = flat fitted curve, though single readings scatter; cell line not stated here;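 further: potency means the concentration at half of the fitted maximal effect; % of control where 0% means no effect; nearly all actives have a fitted effect of over 65% in size; a mitochondrial uncoupler was the plate control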
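Measures PINK1 amount and localization on or inside mitochondria by immunofluorescence. Stable cells get compounds at 5 concentrations for 24 hours before fixation and staining; CCCP controls included.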
TRPV1 potentiator: potentiators of human vanilloid receptor 1 (TRPV1); 320,000 compounds, 0.02% hits; potentiation, % at 8.33 µM; AID 540277; TRPV1-expressing cells, Fluo-8 calcium influx, capsaicin EC20 potentiation; host cell line not named in the record; control for the full effect not named in the record; active means potentiation above 80%; inconclusive means 30% to 80%; inactive means below 30%; further: 0% is about no effect
Target sequence (Q8NER1 whole entry, looked up): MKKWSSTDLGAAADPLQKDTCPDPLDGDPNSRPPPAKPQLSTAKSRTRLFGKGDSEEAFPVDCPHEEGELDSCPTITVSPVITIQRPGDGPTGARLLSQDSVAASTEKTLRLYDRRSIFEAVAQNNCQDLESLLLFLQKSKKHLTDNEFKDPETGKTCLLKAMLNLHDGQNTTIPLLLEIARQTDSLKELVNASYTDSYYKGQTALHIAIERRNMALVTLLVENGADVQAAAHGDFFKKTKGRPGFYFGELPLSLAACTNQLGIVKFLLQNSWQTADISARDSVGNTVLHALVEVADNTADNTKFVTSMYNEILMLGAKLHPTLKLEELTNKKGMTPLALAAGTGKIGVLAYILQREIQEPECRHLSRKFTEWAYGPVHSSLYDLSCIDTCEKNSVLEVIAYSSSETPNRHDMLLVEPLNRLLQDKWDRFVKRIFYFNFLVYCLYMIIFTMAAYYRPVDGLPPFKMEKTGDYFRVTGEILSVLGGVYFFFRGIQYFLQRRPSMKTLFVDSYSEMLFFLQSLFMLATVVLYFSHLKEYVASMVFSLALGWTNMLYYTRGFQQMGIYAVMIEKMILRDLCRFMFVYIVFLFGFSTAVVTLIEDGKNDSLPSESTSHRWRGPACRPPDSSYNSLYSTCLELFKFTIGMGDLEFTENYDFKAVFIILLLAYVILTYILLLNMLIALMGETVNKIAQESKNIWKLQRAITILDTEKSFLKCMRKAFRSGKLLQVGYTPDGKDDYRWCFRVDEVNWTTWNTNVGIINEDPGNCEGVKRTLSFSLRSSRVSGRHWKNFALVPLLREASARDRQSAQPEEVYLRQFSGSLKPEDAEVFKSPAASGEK
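Cells expressing TRPV1 were dye-loaded with Fluo-8 and read kinetically: 10 s baseline, 3 min after compound (agonist portion), then 2 min after EC20 capsaicin (allosteric enhancer portion). Calcium-bound dye fluorescence at 480/520 nm.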
D2 ag: activates the human D2 dopamine receptor; activation, % (test concentration not listed); AID 624465; P14416; DiscoveRx PathHunter D2 beta-arrestin, luminescence, 90 min; 100% = 57 uM dopamine signal; 360,000 compounds, 0.084% hits; in the data active = activation above about 40%; inconclusive = about 15% to 40%; inactive = below about 15%; further: compound concentration not given in the record; the text of the record calls up to 30% inactive
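DiscoveRx PathHunter D2 beta-arrestin cells (2,100/well) attached overnight, then compound-stimulated 90 min at 37 C in HBSS/10 mM HEPES/0.1% Tween-20 buffer; beta-galactosidase complementation read by luminescence after 1 h at ambient temperature. Dopamine 57 uM final (EC100) as control.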
Sfp PPTase inh: inhibitors of Bacillus subtilis Sfp phosphopantetheinyl transferase; Q9F4F7; Biochemical Sfp PPTase activity, qHTS; Potency, µM, without a hit: max response, negative = inhibition, hits mostly inhibitors; 310,000 compounds, 3.5% hits; active means well fitted inhibition curve with a large enough effect; inconclusive means small, poorly fitted or top-dose-only effect, or another doubt; inactive means no such curve, though single readings can be large or run the other way;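 further: the enzyme is Sfp with the accession as filed and its product quenches rhodamine fluorescence; potency means the concentration at half of the fitted maximal effect; 0% = enzyme reaction without inhibitor and -100% = no enzyme wells; top concentration of the series not given in the record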
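Sfp 15 nM + cpd, 15 min RT; start w/ rhodamine-CoA 5 uM, BHQ-2-YbbR 12.5 uM (final); 50 mM Hepes pH 7.6, 10 mM MgCl2, 0.01% NP-40, 0.01% BSA; read 525/598 nm at 0 and 30 min.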
Active calls of the source: *; ? = inconclusive; . = no result given; & = joins results of further samples; [ ] = another dose, or the depositor's remark.

Sample of the layout:
#1 Cc1ccc(C(=O)OCC(=O)N2CCOCC2)c(C)c1
#2 C/C(=N\Nc1nc(N)cc(Cl)n1)c1cccc(N)c1
#3 Cc1cccc(-c2nsc(SCC(=O)Nc3cc(C)on3)n2)c1
#4 COc1ccc(CNC(=O)C2CCC(=O)N2C(C)C)c(OC)c1 (stereo not drawn)
#5 CCOC(=O)c1sc(NC(=O)COC(=O)C(CCSC)NC(C)=O)nc1C (stereo not drawn)

Compound,1,2,3,4,5
Six1-Eya2 inh,0,-8,-5,1,8
CtBP-E1A inh,4,5,-2,7,-6
D2 PAM,-4,-2,-5,-2,-4
PINK1 modulator,-1.1%,0.0%,14%,-0.2%,1.2%
TRPV1 potentiator,-5,2,-2,-6,20
D2 ag,-1.2,0.2,1.9,-6.4,-2.0
Sfp PPTase inh,8%,-3%,2%,20%,-1%

The listing, from the first entry:
#1 Cc1ccc(C(=O)OCC(=O)N2CCOCC2)c(C)c1
#2 C/C(=N\Nc1nc(N)cc(Cl)n1)c1cccc(N)c1
#3 Cc1cccc(-c2nsc(SCC(=O)Nc3cc(C)on3)n2)c1
#4 COc1ccc(CNC(=O)C2CCC(=O)N2C(C)C)c(OC)c1 (stereo not drawn)
#5 CCOC(=O)c1sc(NC(=O)COC(=O)C(CCSC)NC(C)=O)nc1C (stereo not drawn)

Compound,1,2,3,4,5
Six1-Eya2 inh,0,-8,-5,1,8
CtBP-E1A inh,4,5,-2,7,-6
D2 PAM,-4,-2,-5,-2,-4
PINK1 modulator,-1.1%,0.0%,14%,-0.2%,1.2%
TRPV1 potentiator,-5,2,-2,-6,20
D2 ag,-1.2,0.2,1.9,-6.4,-2.0
Sfp PPTase inh,8%,-3%,2%,20%,-1%

#6 CCCn1c(SCC(=O)Nc2ccccc2Cl)n[nH]c1=O
#7 O=C(CSc1ncn(-c2ccccc2)n1)Nc1nccs1
#8 O=C(OCc1ccccc1)N1CCC2CC1c1cc(NCCc3ccccc3)ccc12 (stereo not drawn)
#9 CCCCN(C(=O)c1ccc(C)c(S(=O)(=O)N2CCOCC2)c1)c1c(N)n(CC(C)C)c(=O)[nH]c1=O
#10 COc1ccc(S(=O)(=O)NC(C)C(=O)NCC2CCCO2)cc1OC (stereo not drawn)

Compound,6,7,8,9,10
Six1-Eya2 inh,5,-6,?,5,-2
CtBP-E1A inh,2,2,-22,-3,-2
D2 PAM,-6,-14,-10,1,0
PINK1 modulator,0.6%,.,-1.2%,1.5%,-2.0%
TRPV1 potentiator,-3,10,.,?,-1
D2 ag,-2.8,-0.5,-2.3,-2.1,-3.3
Sfp PPTase inh,17%,3%,.,.,7%

#11 COC(=O)c1ccc(COc2ccc(-c3nnn(CC(N)=O)n3)cc2)cc1
#12 CCNC(=O)CC(=O)Nc1ccccc1C(=O)O
#13 O=C(NCCO)c1ccc(CSc2nc3ccccc3[nH]2)cc1
#14 COC(=O)c1cc(Br)c(=O)n(Cc2ccc3c(c2)OCO3)c1
#15 Cc1cc(C)c(C#N)c(SCC(=O)Nc2ccccc2)n1

Compound,11,12,13,14,15
Six1-Eya2 inh,-10,-1,1,0,4
CtBP-E1A inh,5,-5,-9,0,2
D2 PAM,-4,-9,0,16,-6
PINK1 modulator,-0.2%,2.3%,1.7%,-2.5%,1.7%
TRPV1 potentiator,8,0,6,9,11
D2 ag,0.7,-1.0,-1.9,-2.9,-0.1
Sfp PPTase inh,9%,13%,8%,0%,2%

#16 COc1ccc(Cl)cc1NC(=O)CSc1nnc(Cn2c(=O)sc3ccccc32)n1C
#17 O=C(CN(C(=O)CCNC(=O)c1ccco1)c1ccccc1)NC1CCCC1
#18 COC(=O)c1ccc(N2CCN(S(=O)(=O)c3ccc(Br)cc3)CC2)c([N+](=O)[O-])c1
#19 C(=C\c1ccccc1)/C=N/n1cnnc1
#20 COc1nc(NS(=O)(=O)c2ccc(C)cc2)nc(C)c1Cl

Compound,16,17,18,19,20
Six1-Eya2 inh,-3,1,-18,5,-2
CtBP-E1A inh,5,40,-18,4,2
D2 PAM,-11,0,3,?,5
PINK1 modulator,-1.8%,-1.5%[38.3 µM],-1.4%,-0.2%,-2.2%
TRPV1 potentiator,20,8,8,?,1
D2 ag,-0.6,0.5,0.5,5.5,-2.5
Sfp PPTase inh,4%,-7%,22%,2%,17%

#21 CCN(NC(=O)C(O)(c1ccc(F)cc1)c1ccc(F)cc1)C(=O)c1ccccc1
#22 CCOC(=O)N1CCN(C(=O)c2ccccc2N(Cc2ccccc2)S(=O)(=O)c2ccccc2)CC1
#23 S=C(NCCc1ccccc1)Nc1ccccc1Cl
#24 O=C(Nc1ccccc1)N(C1=NCCC1)c1ccccc1
#25 COc1ccc(OC)c(CCNC(=O)CS(=O)(=O)Cc2nc(-c3ccc(C)cc3)oc2C)c1

Compound,21,22,23,24,25
Six1-Eya2 inh,2,0,-15,13,0
CtBP-E1A inh,2,0,5,6,-3
D2 PAM,-17,-2,-21,-4,-3
PINK1 modulator,6.5%,2.7%,3.8%,0.7%,-6.3%[38.3 µM]
TRPV1 potentiator,-4,-5,-8,-7,8
D2 ag,-3.3,-1.3,-3.0,-5.3,0.5
Sfp PPTase inh,6%,19%,13%,5%,-3%

#26 CC(Sc1nnc(C(C)Oc2ccccc2F)o1)C(=O)NCc1ccc2c(c1)OCO2 (stereo not drawn)
#27 C#CCOc1c(Br)cc(/C=C2/C(=O)ON=C2C)cc1OC
#28 Cc1ccc(NCC(O)C(O)C(O)CO)c(N=Nc2ccccc2)c1C (stereo not drawn)
#29 O=C(NCc1cccc(Cl)c1)c1cccc(S(=O)(=O)N2CCCCC2)c1
#30 C/C(=N/NC(=O)c1ccc(-c2ccccc2)cc1)c1cc(O)cc(O)c1

Compound,26,27,28,29,30
Six1-Eya2 inh,1,35,-28,3,-5
CtBP-E1A inh,5,0,.,3,-8
D2 PAM,-1,-7,-20,0,-14
PINK1 modulator,0.2%,1.5%,-0.4%,-0.3%,0.6%
TRPV1 potentiator,-24,7,-5,-14,10
D2 ag,0.1,-5.0,-7.0,-1.8,-3.6
Sfp PPTase inh,.,56µM*,2%,.,5%

#31 Cc1cc2nc3ccc(=[N+](C)C)cc-3sc2cc1N
#32 Cc1ccc(N=C2N=C(N)c3ccccc32)c(C)c1
#33 CCC[C@H]1CC(=O)C=C(c2ccsc2)ON1C(=O)OC(C)(C)C
#34 CCCC(=O)Nc1nnc(/C=C/c2ccccc2)s1
#35 Cc1cc(OCC(=O)OCC(=O)N(C)Cc2ccccc2C)ccc1Cl

Compound,31,32,33,34,35
Six1-Eya2 inh,?,-8,6,0,5
CtBP-E1A inh,72,-3,5,-22,2
D2 PAM,-36,-17,.,-4,-1
PINK1 modulator,-1.5%,2.5%,18%,2.9%,-0.6%
TRPV1 potentiator,6,15,.,5,-17
D2 ag,3.4,-6.8,-0.5,-5.3,-0.1
Sfp PPTase inh,25µM*,8%,.,7%,.

#36 C/C(=N/NC(=O)CNc1ccc(C)cc1)c1ccc(Cl)cc1
#37 O=C(CCNS(=O)(=O)c1ccc(Br)s1)NCc1ccc2c(c1)OCO2
#38 Cc1nc2cc(NCc3nc4ccccc4n3Cc3ccccc3)ccc2n1C
#39 O=C(Nc1ccc(Cl)c(Cl)c1)N1CCSC1c1ccco1 (stereo not drawn)
#40 CC1CCCC(C)N1C(=O)COC(=O)CNC(=O)c1ccc(Cl)cc1Cl (stereo not drawn)

Compound,36,37,38,39,40
Six1-Eya2 inh,-12,0,-9,13,2
CtBP-E1A inh,6,3,11,0,-1
D2 PAM,-5,-8,-12,-31,-10
PINK1 modulator,2.6%[38.3 µM],6.4%,4.4%,8.2%,1.0%
TRPV1 potentiator,2,-1,-1,-13,?
D2 ag,-1.3,5.6,-2.5,-0.8,-4.8
Sfp PPTase inh,5%,23%,?,-16%,.

#41 CC1(C)C(C(N)=O)C(=O)NC(=O)C1C(N)=O (stereo not drawn)
#42 O=C(NCc1ccc(F)cc1)C1CCCN1C(=O)NCc1ccccc1 (stereo not drawn)
#43 COc1ccc(NC(=S)N(CCCN2CCOCC2)Cc2cn(C)c3ccccc23)cc1OC
#44 COc1ccccc1CNC(=O)c1ccccc1NS(C)(=O)=O
#45 C(=Cc1cccnc1)c1ccncc1

Compound,41,42,43,44,45
Six1-Eya2 inh,4,0,-27,4,3
CtBP-E1A inh,5,4,0,9,5
D2 PAM,-5,-16,-9,1,-4
PINK1 modulator,1.5%,-1.1%,1.0%,4.9%[38.3 µM],-3.0%
TRPV1 potentiator,.,11,12,0,.
D2 ag,-6.3,-2.6,0.3,0.4,0.6
Sfp PPTase inh,.,14%,-16%,13%,.

#46 Cc1cccc(NC(=O)CCCCC(=O)Nc2cccc(C)c2)c1
#47 NC(CSC(c1ccccc1)(c1ccccc1)c1cccc2ccccc12)C(=O)O (stereo not drawn)
#48 COc1cc(=O)[nH]c(SCc2c(F)c(F)c(F)c(F)c2F)n1
#49 COc1cccc(Nc2nc(-c3sc(NC(=O)c4ccccc4)nc3C)cs2)c1
#50 COc1ccc(C(=O)NC(=S)Nc2ccc3c(c2)Cc2ccccc2-3)cc1
#51 O=C(c1ccc2c(c1)N(Cc1ccccc1F)C(=O)c1ccccc1S2(=O)=O)N1CCCC1
#52 O=C(CCNS(=O)(=O)c1ccc(Br)cc1)NCC(c1cccs1)N1CCOCC1 (stereo not drawn)

Compound,46,47,48,49,50,51,52
Six1-Eya2 inh,9,-11,-2,-4,-1,5,9
CtBP-E1A inh,3,-16,5,0,13,.,-4
D2 PAM,-5,15,-5,-5,3,7,-13
PINK1 modulator,4.0%,13%,1.2%[38.3 µM],1.6%,18%,0.0%&0.1%,-1.2%
TRPV1 potentiator,.,.,11,19,-3,-31,.
D2 ag,1.5,7.1,2.5,-2.4,-4.4,1.3,0.4
Sfp PPTase inh,.,.,15%,-2%,45µM*,13%,.
